# FGF22 binding – shifts melting point of recombinant human FGF22; Q9HCT0; recombinant FGF22 thermal shift, SYPRO orange fluorescence; percent of sucrose octasulfate shift, DMSO zero; calls only at 9.99 µM; 340,000 tested, 1.5% active; AID 651658;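 active means melting point raised past a set limit in the mean and every replicate; three in four hits are not shown here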
# Target sequence (Q9HCT0 whole entry, looked up): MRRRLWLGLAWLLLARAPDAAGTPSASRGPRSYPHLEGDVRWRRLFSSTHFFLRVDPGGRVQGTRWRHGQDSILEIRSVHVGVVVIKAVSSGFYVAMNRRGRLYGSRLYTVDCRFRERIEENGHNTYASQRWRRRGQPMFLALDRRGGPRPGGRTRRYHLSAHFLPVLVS
# Ecoli rRNA inh – inhibitors of bacterial rRNA selective over humanized ribosomes; GFP signal change (wild-type ribosome), % (concentration not given with the values); E. coli WT GFP vs humanized-ribosome RFP mutants, fluorescence, 24 h; hits give low values; DMSO median 0, no signal -100; 350,000 tested, 1.6% active;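 active means significant combined selectivity score with lowered wild-type GFP, culture density cut under 30%, mutant RFP and density less affected; inactive means any of these conditions unmet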; further: one replicate is shown; some compounds called inactive have numbers as strong as hits
# Ecoli rRNA inh OD600 – further read-out of Ecoli rRNA inh, marked with its call; OD600 change, %; measured here: OD600 growth;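 optical density of the mix in the first replicate; 0 = DMSO median and -100 = no signal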
# Ecoli rRNA inh RFP – further read-out of Ecoli rRNA inh, marked with its call; RFP signal change, %; measured here: RFP humanized mutant strains;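 first replicate; 0 = DMSO median and -100 = no signal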
# An asterisk follows results filed as active; i = inactive; + = active, no number; & = joins results of further samples.
SMILES,FGF22 binding,Ecoli rRNA inh,Ecoli rRNA inh OD600,Ecoli rRNA inh RFP
CC=Cc1ccc2n(c1=O)C[C@@H]1[C@@H](CO)[C@H](C(=O)NCCC)N(Cc3ccccn3)[C@H]21 (mixture of isomers),i,0,1,-0.8
C[C@H]1CN([C@@H](C)CO)S(=O)(=O)c2ccc(Br)cc2O[C@H]1CN(C)C(=O)c1ccccc1F,i,4&3,6&4,6.2&-1.9
CC(C)NC(=O)N(C)C[C@H]1Oc2ccc(NC(=O)Nc3cccc4ccccc34)cc2CC(=O)N([C@H](C)CO)C[C@H]1C,i,0,5,1.7
C[C@@H]1CN([C@H](C)CO)S(=O)(=O)c2ccc(C3=CCCC3)cc2O[C@@H]1CN(C)C(=O)CC1CC1,i,0,4,4.8
COC(=O)C[C@@H]1C[C@@H]2c3cc(NS(=O)(=O)c4ccc(OC)cc4)ccc3O[C@@H]2[C@@H](CO)O1,i,-1,-6,-1.8
CCNC(=O)C[C@H]1CC[C@H]2[C@@H](COC[C@@H](O)CN2C(=O)C2CCOCC2)O1,i,-5,-2,16
C[C@H]1CN([C@@H](C)CO)C(=O)Cc2cc(NS(=O)(=O)c3ccc(F)cc3)ccc2O[C@@H]1CN(C)S(=O)(=O)c1ccc(F)cc1,i,-1,5,1.7
COC(=O)C1=C(C)N(Cc2ccc(C(F)(F)F)cc2)C(=NCc2ccc3c(c2)OCO3)NC1c1ccccc1C(F)(F)F (stereo not drawn),i,-41,-69,-6.7
CCC(=O)N1CC2(CCN(Cc3cncnc3)CC2)c2c([nH]c3cc(OC)ccc23)[C@@H]1CO,i,1,4,3.1
C[C@@H]1CN([C@H](C)CO)C(=O)c2cccc(NC(=O)Nc3ccc(F)cc3)c2O[C@@H]1CN(C)S(C)(=O)=O,i,0,8,-3.8
CCCC#Cc1ccc([C@H]2[C@@H](CO)N3CCCCN(Cc4cncnc4)C[C@@H]23)cc1,i,3,6,-4.7
Cc1ccc(-c2ccc3c(c2)O[C@H](CN(C)Cc2ccncc2)[C@H](C)CN([C@H](C)CO)S3(=O)=O)cc1,i,-13,-43,3.3
CCCNC(=O)N1C[C@H]2[C@@H](c3ccccc31)[C@@H](CO)N2C(=O)c1ccncc1,i,4,11,-1.5
O=C(CN1CCOCC1)NCC[C@@H]1CC[C@@H](NC(=O)Cc2ccccn2)[C@H](CO)O1,i,-1,-7,-1.4
CO[C@@H](CN(C)Cc1nccs1)[C@@H](C)CN([C@H](C)CO)S(=O)(=O)c1ccc(C)cc1,i,-4,6,1.9
O=C(C[C@H]1CC[C@@H]2[C@H](COC[C@H](O)CN2C(=O)c2cnccn2)O1)N1CCN(c2ccccc2)CC1,i,2,-10,-3.8
C/C=C/c1ccc2c(c1)O[C@@H](CN(C)C(=O)c1cccc(F)c1)[C@@H](C)CN([C@@H](C)CO)S2(=O)=O,i,-1,-17,2.5
COc1ccc(NC(=O)N(C)C[C@H]2OCCCC[C@@H](C)Oc3ccc(NC(=O)c4ccncc4)cc3C(=O)N([C@H](C)CO)C[C@H]2C)cc1,i,0,8,-0.3
CC(=O)N[C@H]1CC[C@H](CCNC(=O)C2CCCC2)O[C@H]1CO,i,1,1,0.3
CCCC(O)C#Cc1cnc2c(c1)C(=O)N([C@H](C)CO)C[C@H](C)[C@H](CN(C)Cc1ccc3c(c1)OCO3)O2 (stereo partly drawn),i,4,5,0.1

# Another view of 6 compounds above.
# The line under a structure holds: FGF22 binding	Ecoli rRNA inh	Ecoli rRNA inh OD600	Ecoli rRNA inh RFP
CCNC(=O)C[C@H]1CC[C@H]2[C@@H](COC[C@@H](O)CN2C(=O)C2CCOCC2)O1
→ i	-5	-2	16
C[C@H]1CN([C@@H](C)CO)C(=O)Cc2cc(NS(=O)(=O)c3ccc(F)cc3)ccc2O[C@@H]1CN(C)S(=O)(=O)c1ccc(F)cc1
→ i	-1	5	1.7
COC(=O)C1=C(C)N(Cc2ccc(C(F)(F)F)cc2)C(=NCc2ccc3c(c2)OCO3)NC1c1ccccc1C(F)(F)F (stereo not drawn)
→ i	-41	-69	-6.7
CCC(=O)N1CC2(CCN(Cc3cncnc3)CC2)c2c([nH]c3cc(OC)ccc23)[C@@H]1CO
→ i	1	4	3.1
C[C@@H]1CN([C@H](C)CO)C(=O)c2cccc(NC(=O)Nc3ccc(F)cc3)c2O[C@@H]1CN(C)S(C)(=O)=O
→ i	0	8	-3.8
CCCC#Cc1ccc([C@H]2[C@@H](CO)N3CCCCN(Cc4cncnc4)C[C@@H]23)cc1
→ i	3	6	-4.7

# The main list resumes, repeating the 2 entries before the break.
SMILES,FGF22 binding,Ecoli rRNA inh,Ecoli rRNA inh OD600,Ecoli rRNA inh RFP
CC(=O)N[C@H]1CC[C@H](CCNC(=O)C2CCCC2)O[C@H]1CO,i,1,1,0.3
CCCC(O)C#Cc1cnc2c(c1)C(=O)N([C@H](C)CO)C[C@H](C)[C@H](CN(C)Cc1ccc3c(c1)OCO3)O2 (stereo partly drawn),i,4,5,0.1
CC(C)NC(=O)Nc1ccc2c(c1)C(=O)N([C@H](C)CO)C[C@@H](C)[C@@H](CN(C)CC1CCCCC1)O2,i,6,0,0.0
Cc1noc(C)c1S(=O)(=O)Nc1ccc2c(c1)C(=O)N([C@@H](C)CO)C[C@@H](C)[C@H](CN(C)C(=O)C1CCCCC1)OCCCC[C@H](C)O2,i,0,-2,0.9
COC(=O)C[C@@H]1CC[C@@H]2[C@H](COC[C@H](O)CN2C(=O)Nc2cccc(F)c2)O1,i,-23,-32,4.7
CO[C@H]1CN(C)C(=O)c2cc(NC(=O)C3CCC3)ccc2OC[C@H](C)N(Cc2ccc(F)cc2)C[C@H]1C,i,0,-13,0.8
C[C@H](CO)N1C[C@H](C)[C@@H](CN(C)C(=O)NC2CCCCC2)OCCCC[C@H](C)Oc2ccc(NC(=O)NC3CCCCC3)cc2C1=O,i,-2,1,0.0
COc1ccc(CN2CC3(CN(C(=O)Cc4ccncc4)C3)c3c([nH]c4cc(OC)ccc34)[C@H]2CO)cc1,i,-2,9,-2.8
C[C@@H](NC(=O)[C@@H]1N[C@@H]2c3ccc(-c4cccnc4)c(=O)n3C[C@@H]2[C@H]1CO)c1ccccc1,i,1,4,0.2
CO[C@@H]1CN(C)C(=O)c2ccc(NS(=O)(=O)c3cn(C)cn3)cc2OC[C@H](C)N(CC2CC2)C[C@H]1C,i,3,2,-2.8
CC(C)NC(=O)Nc1ccc2c(c1)C(=O)N([C@@H](C)CO)C[C@@H](C)[C@H](CN(C)C(=O)NC(C)C)OCCCC[C@@H](C)O2,i,-2,1,-4.9
CC(C)NC(=O)N1CC2(C1)[C@H](c1ccccc1)[C@@H](CO)N2C(=O)c1ccccn1,i,3,1,-1.8
CC(=O)N(C)C[C@@H]1Oc2ncc(-c3ccc(C)cc3)cc2C(=O)N([C@H](C)CO)C[C@H]1C,i,-1,10,-2.2
CCCC(=O)Nc1ccc2c(c1)C(=O)N(C)[C@H]1CC[C@H](CC(=O)Nc3ccccc3)O[C@H]1CO2,i,0,0,-2.0
O=C(c1cccnc1)N1CC2(C1)[C@@H](c1ccccc1)[C@@H](CO)N2Cc1ccc(Cl)cc1,i,-5,-3,4.0
C[C@H]1CN([C@@H](C)CO)C(=O)CCCn2nncc2CO[C@@H]1CN(C)C(=O)Nc1ccc2c(c1)OCCO2,i,1,1,-0.1
COc1ccc2c3c(n(C)c2c1)[C@@H](CO)N(C(=O)Nc1ccc(F)cc1)CC31CCN(S(=O)(=O)c2cn(C)cn2)CC1,i,0,5,-1.3
COc1cccc(NC(=O)N(C)C[C@@H]2Oc3ncc(C#Cc4ccccc4)cc3C(=O)N([C@H](C)CO)C[C@H]2C)c1,i,-5,-7,3.8
C[C@H](CO)N1C[C@H](C)[C@@H](CN(C)S(C)(=O)=O)OCCCC[C@H](C)Oc2ccc(NC(=O)Nc3ccc(F)cc3)cc2C1=O,i,-3,1,-3.1
O=C(C[C@@H]1CC[C@@H](NS(=O)(=O)c2ccccc2)[C@H](CO)O1)NCc1ccc(Cl)c(Cl)c1,i,-5,-3,4.2
CC(C)C#Cc1ccc([C@@H]2[C@@H](C#N)N(C(=O)c3ccccn3)[C@H]2CO)cc1,i,-29,-67,7.5
C[C@@H]1CN([C@@H](C)CO)C(=O)c2cccc(NC(=O)NC3CCCCC3)c2O[C@@H]1CN(C)S(=O)(=O)c1cccs1,i,-11,-23,-2.9
C[C@@H]1CN([C@H](C)CO)C(=O)c2cc(-c3cccnc3)cnc2O[C@H]1CN(C)Cc1ccc(-c2ccccc2)cc1,i,4,-37,25
CNC(=O)C[C@@H]1CC[C@@H]2[C@H](COC[C@H](O)CN2Cc2ccccc2F)O1,i,3,7,-2.3
CC(C)NC(=O)Nc1ccc2c(c1)C(=O)N([C@H](C)CO)C[C@H](C)[C@@H](CN(C)C(=O)Nc1ccc3c(c1)OCO3)OCCCC[C@@H](C)O2,i,-2,-6,-4.3
CC(C)CC#Cc1ccc2c(c1)O[C@H](CN(C)C(=O)C1CCOCC1)[C@@H](C)CN([C@@H](C)CO)S2(=O)=O,i,-4,-11,-2.6
C[C@@H]1CCCCO[C@@H](CN(C)S(=O)(=O)c2cccs2)[C@@H](C)CN([C@@H](C)CO)C(=O)c2cc(NS(=O)(=O)c3cn(C)cn3)ccc2O1,i,6,13,-2.5
COCC#Cc1ccc([C@H]2[C@@H](CO)N3CCCCN(C(=O)COC)C[C@@H]23)cc1,i,5,2,-1.4
C[C@H]1CN([C@@H](C)CO)C(=O)CCCn2nncc2CO[C@H]1CN(C)Cc1ccccc1,i,0,-3,-2.6
Cc1ccc(S(=O)(=O)N(C)C[C@H]2OCCCC[C@H](C)Oc3ccc(NC(=O)Nc4ccccc4)cc3C(=O)N([C@@H](C)CO)C[C@H]2C)cc1,i,-2,5,-0.2
C[C@@H]1CCCCO[C@H](CN(C)C)[C@@H](C)CN([C@@H](C)CO)C(=O)c2cc(NC(=O)Nc3ccc(F)cc3)ccc2O1,i,-3,-1,-3.1
COc1cccc(-c2ccc3c(c2)[C@@H]2[C@@H](CCN2C(=O)c2ccc(F)cc2)[C@H](CO)N3C)c1,i,-2,-7,6.3
COc1cccc(C#Cc2cnc3c(c2)C(=O)N([C@H](C)CO)C[C@H](C)[C@@H](CN(C)C(=O)C2CCCCC2)O3)c1,i,-2,-6,9.3
CNC[C@@H]1Oc2ccc(NC(=O)C3CCCCC3)cc2C(=O)N([C@@H](C)CO)C[C@H]1C,+,4,11,-2.0
COc1ccc(S(=O)(=O)N(C)C[C@H]2OCCCC[C@@H](C)Oc3ccc(NS(=O)(=O)c4ccc(F)cc4)cc3C(=O)N([C@H](C)CO)C[C@H]2C)cc1,i,2,4,5.5
CN(C)CC(=O)N[C@H]1CC[C@H](CCn2cc(C3CC3)nn2)O[C@H]1CO,i,0,1,-1.0
C[C@H](CO)N1C[C@H](C)[C@@H](CN(C)CC2CCCCC2)Oc2c(NC(=O)Nc3cccc4ccccc34)cccc2C1=O,i,-9,-19,-1.2
C[C@H](CO)N1C[C@H](C)[C@H](CN(C)S(=O)(=O)c2cccs2)OCCCC[C@H](C)Oc2ccc(NC(=O)NC3CCCCC3)cc2C1=O,i,-2,-5,-1.0
Cc1noc(C)c1NC(=O)Nc1ccc2c(c1)CC(=O)N([C@H](C)CO)C[C@@H](C)[C@@H](CN(C)C(=O)Nc1c(C)noc1C)O2,i,6,17,-0.7
CNC(=O)C[C@H]1CC[C@@H]2[C@H](COC[C@H](O)CN2Cc2ccc(C(F)(F)F)cc2)O1,i,3,1,0.0
CNC[C@@H]1Oc2ccc(NC(=O)C3CCCCC3)cc2C(=O)N([C@H](C)CO)C[C@H]1C,i,3,8,-3.3
Cn1cnc(S(=O)(=O)N[C@H]2C=C[C@@H](CC(=O)Nc3ccc(-c4ccccc4)cc3)O[C@H]2CO)c1,i,-5,-4,1.4
COc1ccc2c3c(n(C)c2c1)[C@H](CO)N(C)CC31CCN(C(=O)Nc2cccc(F)c2)CC1,i,-6,-9,5.4
C[C@@H]1CN([C@@H](C)CO)C(=O)Cc2cc(NC(=O)Nc3ccc(F)cc3)ccc2O[C@@H]1CN(C)S(=O)(=O)c1ccc(F)cc1,i,-1,-9,7.4
CCC(=O)N1C[C@H](O)COC[C@H]2O[C@H](CC(=O)NCc3ccc(Oc4ccccc4)cc3)CC[C@@H]21,i,-3,3,-1.8
CNC[C@@H]1Oc2ccc(NC(=O)NC(C)C)cc2C(=O)N([C@H](C)CO)C[C@@H]1C,i,4,16,-1.2
CO[C@H]1CC[C@@H]2CCN(C)C(=O)[C@@H](C)[C@@H](OC)CN(C)C(=O)c3cc(C#N)ccc3OC[C@@H]1O2,i,5,4,-4.2
C[C@H]1CN([C@@H](C)CO)C(=O)Cc2cc(NC(=O)C3CC3)ccc2O[C@@H]1CN(C)S(=O)(=O)c1ccccc1,i,2,4,-1.9
N#C[C@H]1[C@@H](c2ccccc2C2=CCCC2)[C@H](CO)N1C(=O)C1CCOCC1,i,-2,4,1.3
C[C@@H]1CCCCO[C@H](CN(C)C(=O)Nc2ccccc2)[C@@H](C)CN([C@@H](C)CO)C(=O)c2cc(NS(=O)(=O)c3ccccc3)ccc2O1,i,-1,-1,8.3
CC(C)NC(=O)Nc1cccc2c1O[C@@H](CN(C)C(=O)Nc1ccccc1)[C@@H](C)CN([C@@H](C)CO)C2=O,i,3,2,-1.8

# High-throughput results: PubChem BioAssay, Broad Institute

# These rows are one share of the data; count on the stated rates, not on these rows.
